Hsc70: Hsc70 inhibitors, probe displacement, primary screen, biochemical, fluorescence polarization (AID 568); Hsc70 fluorescence polarization, probe displacement; higher % means a stronger effect; strong numbers were not always called active; one-dose displacement, % at 20 µM; IC50 in µM for titrated hits; 83,000 tested, under 10 active;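 active = displacement above 50% without optical interference and an IC50 on retest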;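 also: ATPase domain with a fluorescein-tagged ATP probe; 0% = vehicle and 100% = excess ADP; read after one hour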
WNV protease inh: inhibitors of West Nile virus NS2B-NS3 protease; WNV NS2B-NS3 protease, fluorogenic substrate Ex360/Em465; hits give low values; z-score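 (tested at a level between 10 and 100 µM)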; 65,000 compounds, 0.18% hits; AID 577;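 active = z-score at -3 or under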;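 also: score is relative to mean and spread of the compound wells of a plate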
Target sequence (P06935 1371-1501 limits assumed): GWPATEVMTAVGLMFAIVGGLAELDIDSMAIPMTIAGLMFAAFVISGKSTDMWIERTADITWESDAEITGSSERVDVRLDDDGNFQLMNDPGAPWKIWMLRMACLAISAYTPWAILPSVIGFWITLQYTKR
Target sequence (P06935 1502-1679 limits assumed): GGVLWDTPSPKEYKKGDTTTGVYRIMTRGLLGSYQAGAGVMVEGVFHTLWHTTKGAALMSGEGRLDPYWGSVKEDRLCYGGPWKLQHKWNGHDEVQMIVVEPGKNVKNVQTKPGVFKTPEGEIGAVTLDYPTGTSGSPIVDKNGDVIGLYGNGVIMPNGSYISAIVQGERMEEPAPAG
MT1-MMP reporter: MT1-MMP gene expression reporter suppression – cell-based, luciferase reporter, luminescence (AID 618). 87,000 compounds, 0.62% hits. calls from a first round at 10 µM; hits with a dose series show EC50 in µM. MT1-MMP promoter luciferase reporter cells, luminescence;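 active = over half of the reporter light lost at 10 µM or EC50 under 50 µM; inactive = the rest and hits that failed the dose series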;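 also: actives suppress MT1-MMP promoter-driven transcription so potencies describe inhibitors; HT1080 fibrosarcoma cells; overnight exposure; toxic or luciferase-blocking compounds were not removed from the actives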
An asterisk follows results filed as active.

Screening O=C(NC1CCCC1)C(NS(=O)(=O)c1cccc2nsnc12)c1ccccc1 (stereo not given) returned Hsc70 -3.7%, WNV protease inh -0.66 and MT1-MMP reporter inactive.
Screening CC(=O)c1c(C)[nH]c(C(=O)NCc2cccs2)c1C returned Hsc70 -7.4%, WNV protease inh -0.12 and MT1-MMP reporter inactive.
For Cc1c(Br)c(C(F)(F)F)nn1CC(=O)NCCN1CCOCC1 the results were Hsc70 -3.9%, WNV protease inh 0.02 and MT1-MMP reporter inactive.
For COc1ccc(N2Cc3cccc(C(=O)N4CCOCC4)c3C2=O)cc1 the results were Hsc70 -2.6%, WNV protease inh 0.33 and MT1-MMP reporter inactive.
Screening c1ccc(Cn2nnnc2CN2CCOCC2)cc1 returned Hsc70 -2.7% and MT1-MMP reporter inactive.
Screening O=C(c1ccccc1)N1CCN(C(=O)C23CC4CC(CC(C4)C2)C3)CC1 returned Hsc70 -1.9%, WNV protease inh -0.95 and MT1-MMP reporter inactive.
For Cc1onc(-c2c(F)cccc2Cl)c1C(=O)NCCc1ccc(S(N)(=O)=O)cc1 the results were Hsc70 -0.7%, WNV protease inh -0.27 and MT1-MMP reporter inactive.
For Cn1c2c(c(=O)n(C)c1=O)CN(CC1CCCO1)CN2 (stereo not given) the results were Hsc70 -0.2%, WNV protease inh 0.73 and MT1-MMP reporter inactive.
`COCCNC(=O)CN(c1cc(C(F)(F)F)ccc1Cl)S(C)(=O)=O` gave Hsc70 2.2%, WNV protease inh -0.62 and MT1-MMP reporter inactive.
COc1cccc(C(=O)Nc2ccccc2)c1 was read as Hsc70 -2.7% and MT1-MMP reporter inactive.
`Cc1cccc(CS(=O)(=O)c2nnc([C@H](Cc3ccccc3)NC(=O)OC(C)(C)C)o2)c1` gave Hsc70 -1.3% and MT1-MMP reporter inactive.
CCOC(=O)c1ccc(NC(=O)CSc2nnnn2C2CCCCC2)cc1 was read as Hsc70 0.4% and MT1-MMP reporter inactive.
Screening CCN(CC)Cc1c(O)ccc2c([N+](=O)[O-])c(C)n(-c3ccc(OC)cc3)c12 returned Hsc70 2.3% and MT1-MMP reporter inactive.
Cc1ccc(S(=O)(=O)N(C)CC(=O)N2CCCc3ccccc32)cc1 was read as Hsc70 -3.3%, WNV protease inh 0.65 and MT1-MMP reporter inactive.
`Cc1csc2ncc(C(=O)Nc3cccc(C(F)(F)F)c3)c(=O)n12` gave Hsc70 2.3%, WNV protease inh -2.28 and MT1-MMP reporter inactive.
CCC1CCCCN1C(=O)CCCOc1ccccc1 (stereo not given) was read as Hsc70 -4.0% and MT1-MMP reporter inactive.
`CCCCNC(=O)CSc1nnc(NC(C)=O)s1` gave Hsc70 4.3%, WNV protease inh -0.93 and MT1-MMP reporter inactive.
Screening CCOC(=O)N1CCN(C(=O)CN(c2ccccc2OC)S(=O)(=O)c2ccc(C)cc2)CC1 returned Hsc70 1.0%, WNV protease inh 1.82 and MT1-MMP reporter inactive.
`COc1cc(C2C(C#N)=C(N)OC3=C2C(=O)CC(C)(C)C3)ccc1OC(=O)N1CCOCC1` (stereo not given) gave Hsc70 -0.7%, WNV protease inh -0.19 and MT1-MMP reporter inactive.
`COC(=O)C1Sc2[nH]c(=O)sc2C(c2ccc(Cl)cc2)C1C(=O)OC` (stereo not given) gave Hsc70 1.6%, WNV protease inh -0.07 and MT1-MMP reporter inactive.
For Cc1cccc(C)c1OCCCN1CCCC1 the results were Hsc70 3.0% and MT1-MMP reporter inactive.
COc1nc(Nc2nc3ccccc3c(=O)[nH]2)nc2ccc(C)cc12 was read as Hsc70 -6.2%, WNV protease inh -0.76 and MT1-MMP reporter inactive.
For O=C(c1cnn2c(C(F)F)cc(C3CC3)nc12)N1CCOCC1 the results were Hsc70 -5.0%, WNV protease inh -0.2 and MT1-MMP reporter inactive.
Screening CCOc1ccc(Nc2nc(N3CCCCC3)nc(N3CCCCC3)n2)cc1 returned Hsc70 2.3% and MT1-MMP reporter inactive.
Screening CC1CC(=O)N(CC(=O)N2CCCC2)c2ccccc2S1 (stereo not given) returned Hsc70 -0.3%, WNV protease inh 2.27 and MT1-MMP reporter inactive.
For O=C(NCCc1c[nH]c2ccccc12)C(F)(F)F the results were Hsc70 -7.3% and MT1-MMP reporter inactive.
For CCCC(c1nnnn1CC1CCCO1)N1CCN(c2nc3ccccc3s2)CC1 (stereo not given) the results were Hsc70 -1.5% and MT1-MMP reporter inactive.
For COC(=O)C1=C(C)NC(=O)C1(Nc1ccc(Cl)cn1)C(F)(F)F (stereo not given) the results were Hsc70 -2.0%, WNV protease inh -0.03 and MT1-MMP reporter inactive.
Screening CSc1ccccc1NC(=O)c1c(C)noc1C returned Hsc70 1.7%, WNV protease inh -0.34 and MT1-MMP reporter inactive.
Screening CC1CCN(CCC(=O)Nc2ccc3c(c2)CCC3)CC1 returned Hsc70 -0.6% and MT1-MMP reporter inactive.
NS(=O)(=O)c1ccc(-c2ccc(C=NC3CCS(=O)(=O)C3)o2)cc1 (stereo not given) was read as Hsc70 -11.0%, WNV protease inh -0.74 and MT1-MMP reporter inactive.
`O=C(Nc1ccccc1Cl)N1CCN(c2ccccn2)CC1` gave Hsc70 0.7%, WNV protease inh -0.66 and MT1-MMP reporter inactive.
Screening CCOC(=O)C1=C(C)NC(=S)N(C(C)=O)C1c1ccc(Cl)cc1 (stereo not given) returned Hsc70 4.2% and MT1-MMP reporter inactive.
`CC1=CC(C)(C(Cl)Cl)C(C)=CC1=O` (stereo not given) gave Hsc70 -5.0% and MT1-MMP reporter inactive.
Cc1ccc(CNC(=O)CN(C2CCCCC2)S(C)(=O)=O)cc1 was read as Hsc70 -1.4% and MT1-MMP reporter inactive.
Screening Cc1cccc(NC(=S)NC2CC3CCCC(C2)N3CC(C)C)c1C (stereo not given) returned Hsc70 8.6% and MT1-MMP reporter inactive.
`CCOc1ccc(N2C(=O)CC(NCc3ccc(F)cc3)C2=O)cc1` (stereo not given) gave Hsc70 4.6%, WNV protease inh 0.00959 and MT1-MMP reporter inactive.
`Cc1oc2ccc(OCc3ccccc3F)cc2c1C(=O)O` gave Hsc70 2.2% and MT1-MMP reporter inactive.
Screening O=C(Nc1ccccc1)c1sc2cc(C(F)(F)F)cnc2c1-c1cccs1 returned Hsc70 -4.1% and MT1-MMP reporter inactive.
O=C(NCc1cccnc1)c1ccc(COc2cccc3ccccc23)o1 was read as Hsc70 -2.1% and MT1-MMP reporter inactive.
N#Cc1nc(-c2cccs2)oc1NCc1ccc(Cl)cc1 was read as Hsc70 -7.7%, WNV protease inh 0.71 and MT1-MMP reporter inactive.
COCCNC(=O)CSc1nc2ccccc2c2nc(C)nn12 was read as Hsc70 -0.7%, WNV protease inh -0.81 and MT1-MMP reporter inactive.
Screening Cc1c(C(=O)NCc2cccnc2)sc2nc(-c3ccc(F)cc3)cn12 returned Hsc70 1.0%, WNV protease inh 1.39 and MT1-MMP reporter inactive.
`CC[C@@H](C)[C@H](NC(=O)C1CCN(C(=O)[C@@H](NS(=O)(=O)c2ccc(C)cc2)C(C)C)CC1)C(=O)O` gave Hsc70 -7.7%, WNV protease inh 1.39 and MT1-MMP reporter inactive.
Screening O=c1[nH]c(CSc2nc3ccccc3o2)nc2c1cnn2-c1ccccc1 returned Hsc70 -4.4%, WNV protease inh -0.03 and MT1-MMP reporter inactive.
For Cc1ccccc1-n1nc(C)c2cc(C(=O)NCc3cccnc3)sc21 the results were Hsc70 4.9%, WNV protease inh -0.18 and MT1-MMP reporter inactive.
`O=C(Cn1c(=O)n(-c2ccccc2)c(=O)c2sccc21)N1CCCC1` gave Hsc70 5.5%, WNV protease inh 0.11 and MT1-MMP reporter inactive.
For Cn1c(=O)c2cc(S(=O)(=O)NCCC(=O)NC3CCCCCCC3)ccc2n(C)c1=O the results were Hsc70 7.3%, WNV protease inh 0.33 and MT1-MMP reporter inactive.
Cc1ccc(N(Cc2ccc(C(=O)NC3CCCCC3)cc2)S(C)(=O)=O)cc1C was read as Hsc70 5.1% and MT1-MMP reporter inactive.
For CN1C(=O)c2ccc(N3CCCC3)cc2C1=O the results were Hsc70 17.5%, WNV protease inh -0.98 and MT1-MMP reporter inactive.
`c1ccc(-c2csc(Nc3cccnc3)n2)nc1` gave Hsc70 0.7%, WNV protease inh -0.5 and MT1-MMP reporter inactive.
Screening CN(CC(=O)NCCc1ccccc1)S(=O)(=O)c1cccc2nsnc12 returned Hsc70 5.3% and MT1-MMP reporter inactive.
`Cc1ccc(OCCCN2CCCC2)c(C)c1` gave Hsc70 5.9% and MT1-MMP reporter inactive.
COc1cccc(NC(=O)CCN2C(=O)c3ccccc3S2(=O)=O)c1 was read as Hsc70 0.5% and MT1-MMP reporter inactive.
CSc1cccc(NC(=O)C2CCCN(S(=O)(=O)c3cnc[nH]3)C2)c1 (stereo not given) was read as Hsc70 1.0%, WNV protease inh -1.98 and MT1-MMP reporter inactive.
Clc1ccc(C2CC(c3cccs3)n3ncnc3N2)cc1Cl (stereo not given) was read as Hsc70 -1.9%, WNV protease inh 0.67 and MT1-MMP reporter inactive.
Screening COc1ccc(NC(=O)CN2CCC3(O)CCCCC3C2c2cc(OC)ccc2OC)cc1 (stereo not given) returned Hsc70 -3.1%, WNV protease inh 0.08 and MT1-MMP reporter inactive.
Cc1nn(-c2ccc3nnc(Br)n3n2)c(C)c1Br was read as Hsc70 0.8%, WNV protease inh -1.05 and MT1-MMP reporter inactive.
O=C(Nc1cccc(C(F)(F)F)c1)c1cc2ncc(Br)cn2n1 was read as Hsc70 -2.2% and MT1-MMP reporter inactive.
For CC(=O)c1c(C)nn(C(=O)N2CCOCC2)c1C the results were Hsc70 1.2%, WNV protease inh -1.08 and MT1-MMP reporter inactive.

Looked up by structure from the entries so far:
Screening COc1ccc(NC(=O)CN2CCC3(O)CCCCC3C2c2cc(OC)ccc2OC)cc1 (stereo not given) returned Hsc70 -3.1%, WNV protease inh 0.08 and MT1-MMP reporter inactive.
For Cc1c(Br)c(C(F)(F)F)nn1CC(=O)NCCN1CCOCC1 the results were Hsc70 -3.9%, WNV protease inh 0.02 and MT1-MMP reporter inactive.
`O=C(Nc1ccccc1Cl)N1CCN(c2ccccn2)CC1` gave Hsc70 0.7%, WNV protease inh -0.66 and MT1-MMP reporter inactive.
For Cn1c(=O)c2cc(S(=O)(=O)NCCC(=O)NC3CCCCCCC3)ccc2n(C)c1=O the results were Hsc70 7.3%, WNV protease inh 0.33 and MT1-MMP reporter inactive.
COc1cccc(C(=O)Nc2ccccc2)c1 was read as Hsc70 -2.7% and MT1-MMP reporter inactive.

The listing picks up with the two entries that preceded the break.
O=C(Nc1cccc(C(F)(F)F)c1)c1cc2ncc(Br)cn2n1 was read as Hsc70 -2.2% and MT1-MMP reporter inactive.
For CC(=O)c1c(C)nn(C(=O)N2CCOCC2)c1C the results were Hsc70 1.2%, WNV protease inh -1.08 and MT1-MMP reporter inactive.
Screening O=c1/c(=C/c2ccccn2)sc2n1CN(c1ccccc1)CN=2 returned Hsc70 -0.7%, WNV protease inh 0.55 and MT1-MMP reporter inactive.
Screening COc1ccc(OC)c(NC(=O)COC(=O)/C=C/c2c(C)nn(C3CCS(=O)(=O)C3)c2Cl)c1 (stereo not given) returned Hsc70 0.7% and MT1-MMP reporter inactive.
Cc1ccccc1-n1c(=O)cc(NCc2ccc3c(c2)OCO3)[nH]c1=O was read as Hsc70 -3.0%, WNV protease inh -0.5 and MT1-MMP reporter inactive.
Screening FC(F)Oc1ccc(/C=N/c2c(-c3ccc(OC(F)F)cc3)nc3n2CCS3)cc1 returned Hsc70 -0.2% and MT1-MMP reporter inactive.
`CC(C)Oc1nc(-c2ccccc2O)nc2ccccc12` gave Hsc70 -4.8%, WNV protease inh -0.00577 and MT1-MMP reporter inactive.
Screening COc1ccc(OC)c(N(CC(=O)Nc2ccccc2C(=O)NCc2ccco2)S(C)(=O)=O)c1 returned Hsc70 3.1% and MT1-MMP reporter inactive.
For CCOC(=O)c1c(NC(=O)C2CCCO2)sc(C(=O)OC(C)(C)C)c1C (stereo not given) the results were Hsc70 -0.4% and MT1-MMP reporter inactive.
`O=S(=O)(c1ccccc1)c1nc(-c2cccs2)oc1NCCCn1ccnc1` gave Hsc70 5.4%, WNV protease inh 0.2 and MT1-MMP reporter inactive.
For Cc1cc(C(=O)CSc2n[nH]c(N)n2)c(C)n1-c1cccc(F)c1 the results were Hsc70 4.9%, WNV protease inh 0.68 and MT1-MMP reporter inactive.
Screening Cc1cc(C)nc(/N=C2\NC(=O)CC(C(=O)O)N2c2ccc(Cl)cc2)n1 (stereo not given) returned Hsc70 3.1%, WNV protease inh 0.3 and MT1-MMP reporter inactive.
`O=C(Cc1cnn(-c2ccccc2)c1)c1ccc(O)c(O)c1O` gave Hsc70 0.1% and MT1-MMP reporter inactive.
Screening COC(=O)/C=c1/sc2n(c1=O)CCN=2 returned Hsc70 4.7%, WNV protease inh 1.07 and MT1-MMP reporter inactive.
Screening COc1ccc(/C=C2\CCc3ccccc3C2=O)cc1Cn1nc(C)cc1C returned Hsc70 -6.2% and MT1-MMP reporter inactive.

By substructure, the entries above containing a COOH group
`Cc1oc2ccc(OCc3ccccc3F)cc2c1C(=O)O` gave Hsc70 2.2% and MT1-MMP reporter inactive.
`CC[C@@H](C)[C@H](NC(=O)C1CCN(C(=O)[C@@H](NS(=O)(=O)c2ccc(C)cc2)C(C)C)CC1)C(=O)O` gave Hsc70 -7.7%, WNV protease inh 1.39 and MT1-MMP reporter inactive.
Screening Cc1cc(C)nc(/N=C2\NC(=O)CC(C(=O)O)N2c2ccc(Cl)cc2)n1 (stereo not given) returned Hsc70 3.1%, WNV protease inh 0.3 and MT1-MMP reporter inactive.

Screens from PubChem BioAssay.

Rows were taken by chance; 0.8% or so of the library scored in one or more.
